# NOMO-1 viab: STK33 inhibitor candidate reducing NOMO-1 cell viability; actives 7.5% (n = 37,000); inhibition, % (test concentration not listed); NOMO-1 AML viability, CellTiter-Glo luminescence, 72 h; AID 2330;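 active = most replicates above 80%; inconclusive = exactly half above 80%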;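 note: wells of about 30 µL received 25 nL stock; 0% = median of vehicle wells and 100% = reference inhibitor level; the first replicate is given; inactives centre near 10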
# Starred values were filed as active, the others as inactive; ? = inconclusive. Only part of the results is shown; the hit share may differ from the screen's.
SMILES,NOMO-1 viab
C[C@@H]1CN([C@@H](C)CO)C(=O)Cc2cc(NC(=O)C3CCCCC3)ccc2O[C@@H]1CN(C)S(=O)(=O)c1ccc(Cl)cc1,34.6
C[C@@H]1CN([C@@H](C)CO)C(=O)Cc2cc(NS(=O)(=O)c3cccs3)ccc2O[C@@H]1CN(C)S(=O)(=O)c1ccccc1,-2.7
Cc1noc(C)c1NC(=O)Nc1cccc2c1O[C@@H](CN(C)Cc1ccc(C(=O)Nc3ccccc3N)cc1)[C@H](C)CN([C@@H](C)CO)C2=O,49.3
CC(C)NC(=O)N(C)C[C@@H]1Oc2c(NS(C)(=O)=O)cccc2C(=O)N([C@@H](C)CO)C[C@H]1C,8.8
C[C@@H]1CN([C@@H](C)CO)C(=O)c2cc(NC(=O)Nc3ccc(C(F)(F)F)cc3)ccc2O[C@@H]1CN(C)Cc1ccc2c(c1)OCO2,112.0*
COc1ccc(S(=O)(=O)Nc2ccc3c(c2)C(=O)N([C@H](C)CO)C[C@H](C)[C@H](CN(C)Cc2ccc4c(c2)OCO4)OCCCC[C@@H](C)O3)cc1,43.3
CS(=O)(=O)N(CC(=O)Nc1ccc(C(N)=O)cc1)c1cccc(C(F)(F)F)c1,11.2
CC(C)NS(=O)(=O)c1ccc(OCC(N)=O)c(Cl)c1,-13.2
C[C@H](CO)N1C[C@H](C)[C@@H](CN(C)C(=O)Nc2cccc3ccccc23)Oc2ccc(NC(=O)Cn3cnnn3)cc2C1=O,12.8
O=C1CCc2cc(C3=CSC4=NCCN34)ccc2N1,28.9
COc1ccc(OC)c(NC(=O)c2ccc(Cl)c(S(=O)(=O)Nc3ccc(C)cc3)c2)c1,93.0*
C[C@H]1CN([C@@H](C)CO)C(=O)Cc2cc(NC(=O)c3ccncc3)ccc2O[C@H]1CN(C)S(=O)(=O)c1ccc(Cl)cc1,7.8
C=CCSc1nnc2c(n1)OC(c1ccc(-c3ccc(F)cc3)o1)N(C(C)=O)c1ccccc1-2 (configuration not stated),34.9
CNC[C@H]1Oc2ccc(NC(=O)Cc3cn(C)c4ccccc34)cc2C(=O)N([C@H](C)CO)C[C@@H]1C,13.4
CC(C)NC(=O)N(C)C[C@@H]1Oc2c(NC(=O)Nc3ccc(C(F)(F)F)cc3)cccc2C(=O)N([C@H](C)CO)C[C@@H]1C,116.5*
COc1ccc(NC(=O)N(C)C[C@H]2Oc3ccc(N(C)C)cc3C(=O)N([C@@H](C)CO)C[C@H]2C)cc1,-6.7
C[C@H](CO)N1C[C@H](C)[C@H](CN(C)C(=O)Nc2cccc3ccccc23)Oc2c(NC(=O)Nc3ccccc3)cccc2C1=O,13.9
COc1ccc2cc(C(=O)Nc3ccc(O)cc3)sc(=O)c2c1OC,34.1
Cc1ccc(OCC(=O)Nc2ccc(Cl)c(-c3nc4ccccc4s3)c2)cc1,17.8
Nc1nc(SCC(=O)Nc2ccc(Br)cc2F)n[nH]1,22.6
C[C@@H]1CN([C@H](C)CO)C(=O)c2cc(NC(=O)Cc3ccccc3)ccc2O[C@H]1CN(C)Cc1ccc(C(=O)Nc2ccccc2N)cc1,61.2
C[C@@H]1CN([C@@H](C)CO)C(=O)Cc2cc(NS(=O)(=O)c3ccccc3)ccc2O[C@@H]1CN(C)Cc1ccc2c(c1)OCO2,-8.7
CCC(=O)N1N=C(c2ccccc2)CC1c1cc2cc(OC)ccc2nc1Cl (configuration not stated),49.7
COc1ccc(S(=O)(=O)N(C)C[C@H]2Oc3c(NC(=O)CCCCCC(=O)Nc4ccccc4N)cccc3C(=O)N([C@@H](C)CO)C[C@H]2C)cc1,67.5
CCCNC(=O)Cn1nc(C(F)(F)F)cc1C,7.8

# Next part, starting with the last 5 of the part before.
SMILES,NOMO-1 viab
C[C@@H]1CN([C@H](C)CO)C(=O)c2cc(NC(=O)Cc3ccccc3)ccc2O[C@H]1CN(C)Cc1ccc(C(=O)Nc2ccccc2N)cc1,61.2
C[C@@H]1CN([C@@H](C)CO)C(=O)Cc2cc(NS(=O)(=O)c3ccccc3)ccc2O[C@@H]1CN(C)Cc1ccc2c(c1)OCO2,-8.7
CCC(=O)N1N=C(c2ccccc2)CC1c1cc2cc(OC)ccc2nc1Cl (configuration not stated),49.7
COc1ccc(S(=O)(=O)N(C)C[C@H]2Oc3c(NC(=O)CCCCCC(=O)Nc4ccccc4N)cccc3C(=O)N([C@@H](C)CO)C[C@H]2C)cc1,67.5
CCCNC(=O)Cn1nc(C(F)(F)F)cc1C,7.8
C[C@@H]1CN([C@H](C)CO)C(=O)c2cccc(NC(=O)c3nc4ccccc4s3)c2O[C@@H]1CN(C)S(=O)(=O)c1ccccc1,11.7
Cc1cc(=O)oc2cc(OC(C)C(=O)Nc3sc4c(c3C#N)CCCC4)ccc12 (configuration not stated),-21.8
COc1ccc(S(=O)(=O)N(C)C[C@@H]2Oc3ccc(NC(=O)NC4CCCCC4)cc3C(=O)N([C@@H](C)CO)C[C@@H]2C)cc1,32.7
COc1cc([N+](=O)[O-])ccc1NC(=S)NCc1cccnc1,19.9
C[C@H]1CN([C@@H](C)CO)C(=O)c2cccc(NS(C)(=O)=O)c2O[C@H]1CN(C)C(=O)Nc1ccccc1,8.6
Cc1cc([N+](=O)[O-])ccc1NC(=O)CSc1nnc(-c2ccc(Br)cc2)o1,2.2
C[C@H]1CN([C@@H](C)CO)C(=O)c2cccc(NC(=O)Nc3ccc(C(F)(F)F)cc3)c2O[C@@H]1CN(C)C(=O)Nc1cccc2ccccc12,101.9*
C[C@H]1CN([C@@H](C)CO)C(=O)c2cccc(NS(=O)(=O)c3ccccc3)c2O[C@@H]1CN(C)C(=O)Nc1ccccc1,22.2
Cc1c(NC(=O)CN(c2cccc(Br)c2)S(C)(=O)=O)cccc1[N+](=O)[O-],1.9
Cc1cc([N+](=O)[O-])nn1CC(=O)Nc1cccc(O)c1,-7.9
COc1ccc(CN(C)C[C@H]2Oc3c(NS(C)(=O)=O)cccc3C(=O)N([C@@H](C)CO)C[C@H]2C)cc1,-20.4
C[C@H]1CN([C@@H](C)CO)C(=O)c2cccc(NC(=O)Nc3ccc(C(F)(F)F)cc3)c2O[C@H]1CN(C)S(=O)(=O)c1cn(C)cn1,40.1
O=C1c2ccccc2C(=O)N1CSc1nc2ccccc2s1,39.8
COc1cc(S(=O)(=O)NCc2ccccn2)ccc1Cl,-1.8
CNC[C@@H]1Oc2ccc(NS(=O)(=O)c3ccc(OC)cc3)cc2C(=O)N([C@@H](C)CO)C[C@@H]1C,9.7
C[C@@H]1CN([C@H](C)CO)C(=O)Cc2cc(NS(=O)(=O)c3ccc(F)cc3)ccc2O[C@@H]1CN(C)Cc1ccc(C(=O)Nc2ccccc2N)cc1,90.7*
C[C@@H]1CN([C@@H](C)CO)C(=O)c2cc(NC(=O)CCCN(C)C)ccc2O[C@@H]1CN(C)Cc1ccc(C(F)(F)F)cc1,-5.5
C[C@H](CO)N1C[C@H](C)[C@H](CN(C)S(=O)(=O)c2ccccc2)Oc2ccc(NC(=O)NC3CCCCC3)cc2C1=O,10.4
Cc1noc(C)c1S(=O)(=O)N(C)C[C@H]1Oc2c(NC(=O)c3ccc(-c4nccs4)cc3)cccc2C(=O)N([C@@H](C)CO)C[C@H]1C,47.1
CC(Oc1ccc(C(=O)Nc2ccc(Cl)cc2)cc1)C(=O)Nc1cc(Cl)ccc1Cl (configuration not stated),?
COc1cc2occc2c(O[C@@H]2O[C@H](CO)[C@@H](O)[C@H](O)[C@H]2O)c1CCC(=O)O,-0.5
C[C@@H]1CN([C@H](C)CO)C(=O)Cc2cc(NC(=O)Nc3cccc4ccccc34)ccc2O[C@@H]1CN(C)S(=O)(=O)c1ccc(F)cc1,12.1
C[C@H]1CN([C@@H](C)CO)C(=O)c2cc(NC(=O)Nc3ccc4c(c3)OCO4)ccc2O[C@@H]1CN(C)Cc1ccc(C(F)(F)F)cc1,11.1
Cc1ccc2nc(-c3cccnc3)cc(C(=O)Nc3ccc(S(=O)(=O)NC(C)(C)C)cc3)c2c1,28.7
C[C@@H]1CN([C@H](C)CO)C(=O)c2cc(NS(=O)(=O)c3ccccc3)ccc2O[C@H]1CN(C)C(=O)Nc1ccc2c(c1)OCO2,-12.1

# Shown with tabs: entries from further up
canonical_smiles	NOMO-1 viab
Cc1noc(C)c1S(=O)(=O)N(C)C[C@H]1Oc2c(NC(=O)c3ccc(-c4nccs4)cc3)cccc2C(=O)N([C@@H](C)CO)C[C@H]1C	47.1
CC(Oc1ccc(C(=O)Nc2ccc(Cl)cc2)cc1)C(=O)Nc1cc(Cl)ccc1Cl (configuration not stated)	?

# Returning to the listing with the 2 entries that preceded the break.
SMILES,NOMO-1 viab
Cc1ccc2nc(-c3cccnc3)cc(C(=O)Nc3ccc(S(=O)(=O)NC(C)(C)C)cc3)c2c1,28.7
C[C@@H]1CN([C@H](C)CO)C(=O)c2cc(NS(=O)(=O)c3ccccc3)ccc2O[C@H]1CN(C)C(=O)Nc1ccc2c(c1)OCO2,-12.1
C/C(=C/C(=O)O)CCC1C(C)CCC2C(C)(C=O)C(O)CCC12C (configuration not stated),10.9
CCN(CC(=O)Nc1cccc(C(C)=O)c1)S(=O)(=O)c1ccc(F)cc1,-10.0
CC(=O)c1ccccc1OCC(O)Cn1ccnc1 (configuration not stated),13.7
Cc1noc(C)c1NC(=O)N(C)C[C@@H]1Oc2ccc(NC(=O)Nc3ccc(C(F)(F)F)cc3)cc2CC(=O)N([C@H](C)CO)C[C@H]1C,-15.3
C[C@H](CO)N1C[C@H](C)[C@H](CN(C)CC2CC2)Oc2ccc(NC(=O)c3ccncc3)cc2CC1=O,2.0
COc1cc(/C=C/CO)cc(OC)c1OC/C=C(\C)CCC=C(C)C,?
C[C@@H]1CN([C@@H](C)CO)C(=O)c2cccc(NS(=O)(=O)c3ccccc3)c2O[C@@H]1CN(C)CC1CC1,-2.6
COC(=O)c1cc(C)sc1NC(=S)NCCn1cc(Cl)cn1,-0.2
COC(=O)c1cc(OC)c(OC)cc1NC(=O)CSc1nc(C)cc(C(F)(F)F)c1C#N,-9.1
CC(C)NC(=O)N(C)C[C@@H]1Oc2ccc(NC(=O)C3CCCCC3)cc2C(=O)N([C@@H](C)CO)C[C@H]1C,1.0
COC(=O)c1cc(O)cc(OC)c1C(=O)c1c(O)cc(C)cc1OC,67.8
C[C@@H]1CCCCO[C@H](CN(C)Cc2ccc(C(=O)O)cc2)[C@@H](C)CN([C@H](C)CO)C(=O)c2cc(NC(=O)Nc3ccccc3)ccc2O1,-6.3
COc1ccc(NC(=O)N(C)C[C@H]2Oc3c(NC(=O)Nc4ccc(F)cc4)cccc3C(=O)N([C@H](C)CO)C[C@@H]2C)cc1,17.4
CC1(C)C(=O)[C@@H]2O[C@@H]2[C@@]2(C)C1CC(=O)[C@]1(C)C2CC[C@@]2(C)[C@H](c3ccoc3)OC(=O)[C@H]3O[C@]321 (some centres not stated),37.2
Cc1noc(C)c1NC(=O)N(C)C[C@H]1OCCCC[C@@H](C)Oc2ccc(NS(=O)(=O)c3cn(C)cn3)cc2C(=O)N([C@H](C)CO)C[C@@H]1C,6.8
CCCOc1ccc(Oc2nc(NCC)nc(OC)n2)nn1,0.8
COC(CC(c1c(O)cc2cc(C)oc(=O)c2c1O)c1c(O)cc2cc(C)oc(=O)c2c1O)C(=O)O (configuration not stated),7.2
C[C@@H]1CN([C@H](C)CO)C(=O)c2cccc(NC(=O)c3cnccn3)c2O[C@@H]1CN(C)Cc1ccc(-c2ccccc2)cc1,21.9
NC(=O)CSc1nnc(SCc2cccc3ccccc23)s1,10.6
C[C@H](CO)N1C[C@H](C)[C@H](CN(C)S(C)(=O)=O)Oc2ccc(NS(=O)(=O)c3ccccc3)cc2CC1=O,9.7
C[C@@H]1CN([C@@H](C)CO)C(=O)c2cccc(NC(=O)Nc3ccc(C(F)(F)F)cc3)c2O[C@H]1CN(C)Cc1ccncc1,5.1
CCn1c(SCC(=O)Nc2ccc(F)c(Cl)c2)nnc1-c1ccc(C(C)(C)C)cc1,53.3
O=C(O)C1CC=CCC1C(=O)Nc1ccc(C(=O)N2CCCCC2)c(Cl)c1 (configuration not stated),2.8
O=C(Cn1cc(C(=O)C2CC2)c2ccccc21)Nc1ccccc1Cl,3.2
Cc1cc(C(=O)Nc2cccc3c2O[C@H](CN(C)Cc2ccc(C(F)(F)F)cc2)[C@H](C)CN([C@H](C)CO)C3=O)n(C)n1,15.3

# Remaining list, next part.
SMILES,NOMO-1 viab
C[C@@H]1CN([C@H](C)CO)C(=O)c2cccc(NC(=O)c3ccc(-c4nccs4)cc3)c2O[C@H]1CN(C)Cc1ccncc1,-0.8
CC(=O)Nc1ccc(OC(=O)CSc2nc3ccccc3s2)cc1,31.0
C[C@H](CO)N1C[C@H](C)[C@H](CN(C)C(=O)Nc2ccccc2)Oc2ccc(NC(=O)Cc3ccccc3)cc2CC1=O,16.3
O=C1C(=O)N(CCCn2ccnc2)C(c2cccc(Br)c2)C1C(=O)c1ccco1 (configuration not stated),-4.9
O=C(CCn1nc(-c2ccc(Cl)cc2)c2ccccc2c1=O)Nc1cccc(C(F)(F)F)c1,-3.9
CCOC(=O)c1sc(NC(=O)c2cc(-c3ccccc3)on2)c(C(=O)OCC)c1C,-2.5
CCc1cccc(OCC(=O)Nc2ccc(OC)cc2[N+](=O)[O-])c1,10.7
CCOc1ccc(NC(=O)CSc2nnc(N)s2)cc1,0.1
CC(C)c1ccc2oc(-c3ccc(NC(=O)COc4ccc([N+](=O)[O-])cc4)cc3)nc2c1,28.1
O=C(Nc1cccc(C(=O)OC2Cc3ccccc3C2=O)c1)c1ccccc1 (configuration not stated),7.7
C/C=C(/C)C(=O)O[C@H]1CC(C)(C)C[C@H]2C3=CCC4[C@@]5(C)CC[C@H](O[C@@H]6O[C@H](C(=O)O)[C@@H](O[C@@H]7O[C@H](CO)[C@H](O)[C@H](O)[C@H]7O[C@@H]7O[C@H](CO)[C@@H](O)[C@H](O)[C@H]7O)[C@H](O)[C@H]6O[C@@H]6O[C@@H](C)[C@H](O)[C@@H](O)[C@H]6O)C(C)(C)C5CC[C@@]4(C)[C@]3(C)C[C@@H](O)[C@@]12CO (some centres not stated),119.5*
CC(C)NC(=O)Nc1ccc2c(c1)CC(=O)N([C@@H](C)CO)C[C@H](C)[C@H](CN(C)C(=O)Nc1cccc3ccccc13)O2,-1.3
C[C@@H]1CN([C@@H](C)CO)C(=O)Cc2cc(NC(=O)CCC(F)(F)F)ccc2O[C@@H]1CN(C)S(C)(=O)=O,3.1
O=C(CCCN1CCNCC1)c1ccc(F)cc1,6.9

# From PubChem
